Compound activity: PubChem, ICCB-Longwood Screening Facility, Harvard Medical School
Sa growth inh = S. aureus growth inhibition at 42 and 30 °C, primary screen, LtaS inhibitor project, RN4220, two temperatures; OD600, 20 h, 42 °C; stronger effect = lower value; relative growth, % (no concentration beside the values); 0.53% of 170,000 active; AID 720641, 2013;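 active = growth at 42 °C up to 50% and 20 or more points under that at 30 °C, or under 10% at both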;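 note: 300 nL library stock went into each well; scaled to the means of positive and negative controls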
HCMV UL50-53 inh = inhibitors of HCMV UL50-UL53 interaction, biochemical, HTRF. HCMV UL50-UL53 nuclear egress complex (human cytomegalovirus). normalized percent inhibition. inhibition, % (no concentration beside the values). 0.15% of 190,000 active. AID 1918969, 2023;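 active = both replicates at 50% or more, plus weaker picks with an unusually low signal ratio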;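 note: stock transfer was 100 nL into about 20 µL; 0% = negative control wells and 100% = wells with untagged competitor protein; inactives centre near -12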
GIV Gai3 FP = inhibitors of GIV peptide binding to Galpha-i3, primary screen, biochemical, fluorescence polarization, FITC-GIV GBA peptide, rat Galphai3; Guanine nucleotide-binding protein G(i) subunit alpha-3 (Rattus norvegicus), P08753; 90 min; stronger effect = lower value; scaled: aluminum fluoride 0%, vehicle 100%; percent of control (FP), % (concentration not given with the values); 0.42% of 210,000 active; AID 1224905, 2016;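 active = replicate mean at 85% of control or lower, very high polarization wells dropped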;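 note: wells of about 15 µL received 100 nL stock; the first replicate is given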
Target sequence (P08753 whole entry, looked up): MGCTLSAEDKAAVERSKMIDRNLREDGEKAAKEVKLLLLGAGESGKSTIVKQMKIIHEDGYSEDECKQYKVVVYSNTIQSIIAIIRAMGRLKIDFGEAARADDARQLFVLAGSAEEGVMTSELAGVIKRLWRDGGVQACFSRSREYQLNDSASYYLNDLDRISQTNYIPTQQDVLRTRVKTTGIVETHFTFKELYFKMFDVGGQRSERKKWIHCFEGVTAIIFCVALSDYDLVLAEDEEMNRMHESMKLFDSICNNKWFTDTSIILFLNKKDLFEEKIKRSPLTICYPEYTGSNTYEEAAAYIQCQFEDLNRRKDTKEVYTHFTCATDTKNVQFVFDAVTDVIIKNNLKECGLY
Sa growth inh second temp = second read-out of Sa growth inh, no call of its own (marks repeat the call); relative growth, %; measured here: growth at 30 °C;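 optical density after 20 h as mean of two plates; 100% = untreated growth and lower means inhibition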
An asterisk follows results filed as active; nt = not tested or not shown.

SMILES	Sa growth inh	Sa growth inh second temp	HCMV UL50-53 inh	GIV Gai3 FP
CCOc1ccccc1NC(=O)NCCn1c(=O)oc2ccc(C)cc21	106	80	-21	97
COc1cccc(C2(O)CCSc3ccccc32)c1 (stereo not given)	106	86	-22	105
CC(=O)Nc1cccc(NC(=O)c2nc(-c3ccccc3)oc2C)c1	86	98	19	nt
CCOC(=O)c1cn(C(=O)CCSc2ccc(OC)cc2)nc1N	99	83	-39	101
CCn1cc(C(=O)N2CCOCC2)c(=O)c2cc(S(=O)(=O)N3CCc4ccccc4C3)ccc21	94	91	-12	102
Cc1nccc(-c2ccc(Br)cc2)n1	105	100	9	105
CCOC(=O)N1CCN(C(=O)/C(=C/c2ccccc2Cl)c2ccccc2)CC1	94	100	nt	99
COc1cccc(CNC(=O)CCn2cnc3ccccc3c2=O)c1	101	90	nt	103
CC(C(=O)Nc1ccc(Br)cc1)n1nnc2sc3c(c2c1=O)CCCC3 (stereo not given)	nt	nt	-6	112
CCOC(=O)c1nnn(C(CC)C(=O)Nc2c(C)cccc2C)c1C(=O)OCC (stereo not given)	99	89	-15	100
Cc1cc2n(n1)CCCN2CC(=O)Nc1ccccc1Cl	nt	nt	-10	100
CCCOc1ccccc1C1C(C(=O)OC)=CN(C2CCCC2)C=C1C(=O)OC	95	108	14	109
O=c1cc(N2CCN(c3ccc(F)cc3)CC2)[nH]c(=O)n1-c1cccc(Br)c1	108	90	nt	93
COc1ccc(NC(=O)c2ccnc(Nc3ccc(Br)cc3)c2)cc1	nt	nt	12	100
CN1C(C(=O)Nc2sc3c(c2C(N)=O)CCCC3)=CC(c2ccc(F)cc2)=NS1(=O)=O	nt	nt	-11	104
CCOc1ccc(-n2nc3ccc(NC(=O)c4cccc(F)c4)cc3n2)cc1	104	92	-6	104
Cc1nc(Nc2ccc(Cl)cc2)cc(-c2ccccc2)n1	67	36	-6	104
COC(=O)c1ccc(COc2ccccc2)o1	100	89	-15	nt
Cc1ccc2c(n1)sc1c(=O)n(Cc3ccccc3)nnc12	94	82	-35	100
Cc1ccc(CN2C(=O)CCC2C(=O)NCc2ccco2)cc1 (stereo not given)	97	105	-8	112
Cc1cc(/C=C/C(=O)O)c(C)n1-c1ccccc1	130	96	1	nt
COc1ccc(S(=O)(=O)N2CCC3(CC2)Nc2ccccc2-n2cccc23)cc1OC	nt	nt	6	103
CCOc1ccc2oc(=O)cc(CN(Cc3ccco3)CC3CCCO3)c2c1 (stereo not given)	94	68	nt	104
Nc1[nH]n(-c2ccccc2)c(=O)c1N=Nc1ccc(Cl)cc1	130	111	-20	103
COc1ccc(CC(=O)NCCc2csc3nc(-c4cccc(F)c4)nn23)cc1	nt	nt	-7	94

3 compounds out of the list, ordered by molar mass, smallest number first:
SMILES	Sa growth inh	Sa growth inh second temp	HCMV UL50-53 inh	GIV Gai3 FP
Cc1nccc(-c2ccc(Br)cc2)n1	105	100	9	105
CCOc1ccc2oc(=O)cc(CN(Cc3ccco3)CC3CCCO3)c2c1 (stereo not given)	94	68	nt	104
CC(C(=O)Nc1ccc(Br)cc1)n1nnc2sc3c(c2c1=O)CCCC3 (stereo not given)	nt	nt	-6	112

The listing continues.
SMILES	Sa growth inh	Sa growth inh second temp	HCMV UL50-53 inh	GIV Gai3 FP
O=C(N/N=C/c1ccc(Br)cc1)c1ccccc1-n1cccc1	93	87	-8	nt
COc1cc(NC(=O)c2cc3nc(-c4ccc(C)cc4)cc(C(F)(F)F)n3n2)cc(OC)c1OC	104	80	-40	105
CSC1=NC2(CC(c3ccccc3)Oc3cc(O)ccc32)CC(C)(C)N1 (stereo not given)	99	83	-6	nt
O=C(COc1c(F)c(F)cc(F)c1F)C12CC3CC(CC(C3)C1)C2	82	94	-24	nt
Cc1noc2c1C(c1ccc(Cl)cc1)C1=C(CC(C)(C)CC1=O)N2 (stereo not given)	nt	nt	-7	107
COC(=O)c1ccc(C2c3c(-c4ccccc4O)n[nH]c3C(=O)N2Cc2cccnc2)cc1 (stereo not given)	108	46	-20	105
CC(C)CN(C(=O)CSc1nccn1C)C1CCS(=O)(=O)C1 (stereo not given)	85	87	-33	nt
CCOc1ccc2nc(NC(=O)c3ccc(C(C)(C)C)cc3)sc2c1	101	97	-9	nt
COc1ccc(OCC(=O)Nc2nc(-c3ccccc3)ns2)cc1	nt	nt	-3	102
Cc1cc(C(=O)CSCc2ccc(Cl)c(Cl)c2)c(C)n1Cc1ccco1	135	106	8	nt
COCCNS(=O)(=O)c1cc(-c2ccno2)sc1C	nt	nt	-8	102
COC(=O)c1ccccc1NC(=O)CN(c1ccccc1OC)S(C)(=O)=O	101	92	-28	100
CC1=C(C(=O)OCCCCCl)C(c2cc3c(cc2Br)OCO3)NC(=O)N1 (stereo not given)	nt	nt	-12	102
CC(C)Cc1cc(-c2ccc(F)cc2)c(C#N)c(N)n1	111	101	-9	97
Brc1ccc(-c2csc(NN=C3CCCC3)n2)cc1	78	69	-17	99
FC(F)(F)c1nc(=S)c2ccccc2[nH]1	17	3	-29	nt
NNC(=O)COc1cccc(C(F)(F)F)c1	85	90	-22	nt
CCOc1ccc(NC(=O)c2c(NCc3cccs3)sc3c2CCCCC3)cc1	81	75	nt	116
Cc1ccccc1CN1CCC(CNc2ncnc3onc(-c4ccc(Cl)cc4)c23)CC1	101	86	nt	109
Cc1cccc(NC(=O)N2CCc3c(sc4c3CCCC4)C2c2ccc(F)cc2)c1 (stereo not given)	87	88	nt	99
O=C(/C=C/c1ccccc1)Nc1nnc(/N=C/c2ccc(Br)s2)s1	95	99	nt	100
O=C(NC1CCCCCC1)C1CCN(C(=O)N2CCOc3ccccc32)CC1	107	88	-27	102
COc1ccc(C(=O)n2c(=O)oc3ccc(Cl)cc32)cc1	97	86	-8	96
CCOC(=O)c1cc(OC(=O)c2ccc(OC)c(OC)c2)n(-c2ccccc2)n1	83	89	-32	103
CCOC(=O)c1c(NC(=O)/C=C/c2ccc(C)cc2)sc(C(C)=O)c1C	96	82	-48	104

More entries
SMILES	Sa growth inh	Sa growth inh second temp	HCMV UL50-53 inh	GIV Gai3 FP
CC(C)C(=O)N1N=C(c2cccc(NS(C)(=O)=O)c2)CC1c1ccccc1 (stereo not given)	101	95	8	116
CCCN1Cc2cccc(C(=O)Nc3ccccc3C(=O)OC)c2C1=O	93	95	22	104
Nc1cccc(C(=O)NC2CC2)c1	80	86	-28	nt
COc1ccccc1Oc1ccc(C(F)(F)F)cc1N	108	99	nt	96
CCOC(=O)C1CCN(C(=O)CSc2ccc(Br)cc2)CC1	111	88	-6	nt
CC(=O)Oc1ccc(Cl)cc1C1OC(c2nc3nc(C)cc(C)n3n2)=NN1C(C)=O (stereo not given)	75	59	-60	102
O=S(=O)(NCc1ccsc1)c1ccc(N2CCOCC2)nc1	100	90	-8	97
COc1ccc(C(O)(CCc2ccccc2)C(CN2CCCCC2)c2ccccc2)cc1 (stereo not given)	101	55	nt	104
COc1ccc(CCN2C(=O)N(c3cccc(C)c3)C(=O)C2CC(=O)Nc2ccccc2)cc1OC (stereo not given)	102	80	-7	97
CCc1ccc(C2N=C3Oc4ccccc4C=C3C(=O)N2)cc1 (stereo not given)	90	76	-33	104
Brc1ccc2ncnc(-c3ccccc3)c2c1	87	92	nt	102
Cc1ccc(C)c(N2CCN(C(=O)C3CCCCN3S(=O)(=O)c3ccc(F)cc3)CC2)c1 (stereo not given)	nt	nt	-14	107
CCN(CC)S(=O)(=O)c1ccc(Cc2ccc(S(=O)(=O)N(CC)CC)cc2)cc1	99	90	nt	96
O=c1c2ccccc2cnn1Cc1cccc(Br)c1	87	85	-15	101
CCOc1ccccc1C(=O)NCc1ccc2[nH]c(C)cc2c1	88	88	nt	100
O=C(c1ccc(F)cc1)N1CCN(c2cc(=O)n3nc(-c4ccccc4)sc3n2)CC1	nt	nt	-21	101
CCCCNS(=O)(=O)c1ccc(Cl)cc1	100	89	-4	nt
CCn1c(SC(C)C(=O)NCc2ccc(OC)cc2)nc2ccccc21 (stereo not given)	89	85	-21	nt
CCC1CN(C(=O)Nc2cccc3c2CCCC3)c2cc(Cl)ccc2O1 (stereo not given)	70	98	-5	103
Nc1ccc(N2CCN(c3ncc(C(F)(F)F)cc3Cl)CC2)c(C(F)(F)F)c1	76	78	-14	110
Nc1ccc(CN2CCCCCC2)cc1	97	108	3	nt
CCCN1CC=C2C(C#N)(C#N)C(N)=C(C#N)C(c3ccc(OCC(N)=O)cc3)C2(C)C1 (stereo not given)	88	81	37	nt
CCn1c(CN(c2ccc(F)cc2)S(C)(=O)=O)nnc1SCC(=O)Nc1ncc(C)s1	nt	nt	-20	102
COC(=O)c1ccc(C(=O)Nc2nc(-c3cccs3)c(C(=O)C(F)(F)F)s2)cc1	nt	nt	-18	103
CC(NC(=O)/C=C/c1cccs1)C1CC2CCC1C2 (stereo not given)	101	76	-29	nt

Quoted at random: five entries already listed.
SMILES	Sa growth inh	Sa growth inh second temp	HCMV UL50-53 inh	GIV Gai3 FP
NNC(=O)COc1cccc(C(F)(F)F)c1	85	90	-22	nt
Nc1[nH]n(-c2ccccc2)c(=O)c1N=Nc1ccc(Cl)cc1	130	111	-20	103
CCn1c(SC(C)C(=O)NCc2ccc(OC)cc2)nc2ccccc21 (stereo not given)	89	85	-21	nt
O=c1c2ccccc2cnn1Cc1cccc(Br)c1	87	85	-15	101
CCOC(=O)N1CCN(C(=O)/C(=C/c2ccccc2Cl)c2ccccc2)CC1	94	100	nt	99

Returning to the listing with the two entries that preceded the break.
SMILES	Sa growth inh	Sa growth inh second temp	HCMV UL50-53 inh	GIV Gai3 FP
COC(=O)c1ccc(C(=O)Nc2nc(-c3cccs3)c(C(=O)C(F)(F)F)s2)cc1	nt	nt	-18	103
CC(NC(=O)/C=C/c1cccs1)C1CC2CCC1C2 (stereo not given)	101	76	-29	nt
O=C(O)C1=C(Sc2ccc(Cl)cc2)CSC1	93	86	-11	98
O=C(Nc1cccc(Cl)c1)N1CCN(c2nc3cccnc3n(Cc3ccccc3)c2=O)CC1	nt	nt	-42	105
CC1=NN(C)C(=O)/C1=N\OC(=O)c1ccc(Cl)cc1	94	73	-9	91
CCCNC(=O)Nc1cccc(-c2noc(-c3ccc(C)c(C)c3)n2)c1	nt	nt	2	100
COc1cc(C)nc2nc(SC)nn12	90	95	-3	110
COC(=O)c1c(C)sc(-c2c(-c3cccc(OC)c3)[nH]c3c2c(=O)[nH]c(=O)n3C)c1O	93	86	-7	155
Cn1cnnc1SCc1cn2ccccc2n1	99	91	-5	nt
COc1ccc2c(COC(=O)c3ccc4c(=O)n5c(nc4c3)CCC5)cc(=O)oc2c1	84	90	-13	nt
O=S(=O)(c1ccccc1)N1CCN(S(=O)(=O)N2CCCCC2)CC1	91	88	-2	96
Cc1cccc(NC(=O)CSc2nc(-c3cccs3)nc3cc(=O)[nH]n23)c1	78	85	nt	98
COc1ccc(S(=O)(=O)N2CCN(C3CCN(Cc4ccccc4)CC3)CC2)cc1	nt	nt	-10	102
COc1ccccc1N1CCN(S(=O)(=O)Cc2ccccc2)CC1	95	103	9	nt
O=C1OCCC1Sc1nnc(COc2ccccc2Cl)n1C1CC1 (stereo not given)	88	84	-25	nt
COC(=O)C1=C(C)N(CC(C)C)C(=O)/C1=C\c1ccco1	109	89	nt	101
Cc1ccc(N=NN(C)C)cc1	85	86	-24	105
CC(=O)Nc1ccc(CNC(=O)c2ccc(F)cc2)cc1	69	78	-6	nt
CC1CCN(C(=O)c2ccc(COc3ccccc3Cl)o2)CC1	63	61	-11	103
O=C(CS(=O)(=O)c1ccc2c(c1)S(=O)(=O)N=CN2)Nc1ccccc1	nt	nt	-18	103
CC(C)CC(C(=O)Nc1cccc(C(F)(F)F)c1)N1C(=O)c2ccccc2C1=O (stereo not given)	85	74	nt	99
Cc1ccc(NC(=O)Cc2nn[nH]n2)cc1Cl	88	88	nt	96
CCOC(=O)C1CCN(C(=O)CSc2cc(=O)n(CC)c3ccccc23)CC1	nt	nt	6	100
CCCn1nc(C(=O)N(C)CCOc2ccccc2)c2ccccc2c1=O	107	95	-9	nt
CCOC(=O)N1CCC(N2CCCC(CO)C2)CC1 (stereo not given)	100	112	-8	97
CCCCC(=O)Nc1c(C(=O)N2CCN(c3ccccc3)CC2)oc2ccccc12	29	23	-15	101
NC(=O)c1sc(=S)n(Cc2ccccc2)c1N	nt	nt	-71	105

Further structures
SMILES	Sa growth inh	Sa growth inh second temp	HCMV UL50-53 inh	GIV Gai3 FP
Cc1csc(C(C#N)C(=O)COc2ccc(Cl)cc2)n1 (stereo not given)	53	24	11	nt
COCCNC(=O)C1CCCN(S(=O)(=O)c2ccc3c(ccn3C)c2)C1 (stereo not given)	93	90	nt	101
CC1(C)NC(=CC(=O)C(F)(F)F)NC1(C)C	98	115	-3	94
COc1cc(C2CC(=O)N(CC(=O)NCC3CCCO3)c3ccccc3S2)cc(OC)c1OC (stereo not given)	105	91	nt	104
O=C(CCC(=O)N1CCOc2ccccc21)Nc1ccccc1Cl	113	89	nt	105
Cc1cc(C)cc(N2CCn3c2nc2c3c(=O)n(CCc3ccccc3)c(=O)n2C)c1	124	94	nt	95
Cn1c(C(=O)NCCc2ccc(Cl)cc2)cc2c(=O)n(C)c3ccccc3c21	112	96	nt	103
CCCNC(=O)Cn1nc(-c2ccc(F)cc2)c2cnc3cc(OC)c(OC)cc3c21	nt	nt	-5	103
